Screening results (PubChem)
Sa ugtP lethal: growth inhibition of S. aureus ugtP deletion strain; AID 1259309; growth inhibition, % (test concentration not listed); S. aureus RN4220 ugtP deletion, OD600 growth, 16 h; some inactives read as strong as hits; actives 0.54% (n = 330,000);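 active = z-score under -3 and OD600 up to 0.15 on both plates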;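 also: plate controls were untreated wells for no effect and antibiotic for full effect; wells of about 80 µL received 100 nL stock; the first replicate is given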
Mtb hypoxia rep: inhibitors of hypoxia-regulated fluorescent reporter in Mycobacterium tuberculosis; M. tuberculosis hypoxia-regulated fluorescent reporter, fluorescence; fluorescence inhibition, % (concentration not given with the values); actives 0.1% (n = 300,000); AID 1159583;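 active = 35 to 45% if threefold the growth effect, above 45% if 1.5-fold the growth effect; inactive = the rest, general growth blockers included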;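 also: wells of about 50 µL received 100 nL stock; 0% = vehicle wells and 100% = reference inhibitor wells; whole bacteria with a GFP reporter of the hypoxia response; strong numbers were not always called active; many hits fall short of the cut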
BJeLR viability: kills HRASV12-expressing BJeLR cells. BJeLR (HRASV12) viability, CellTiter-Glo ATP luminescence, 48 h; reference of the scale not given here. inhibition, % (test concentration not listed). actives 0.17% (n = 300,000). AID 1554;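 active = replicate mean above 50%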;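 also: 50 nL library stock added to about 25 µL; numbers are from one replicate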
Autofluor counter: counter-screen for toxin protease inhibitors: compound fluorescence; compound autofluorescence counterscreen, microsphere flow cytometry; active compounds read high; fluorescence intensity (test concentration not listed); actives 3.1% (n = 360,000);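 active = at least 3 SD above the mean of all compounds, about 16000 in these data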;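 also: 100 nL of 1 mM stock went into each well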
PrP 5UTR inh: suppresses PrP 5' UTR mRNA reporter expression; cell-based PrP 5' UTR mRNA reporter, plate reader; inhibition, % (concentration not given with the values); actives 0.35% (n = 340,000); AID 488862;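 active = every replicate at 50% or more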;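 also: 0 = median of the neutral control wells; tested in H4 reporter cells; numbers are from one replicate; inactives centre near -14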
RN4220 kill: S. aureus RN4220 growth inhibition | OD600, 16 h | inhibition, % (concentration not given with the values) | actives 0.33% (n = 330,000) | AID 1259311;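 active = z-score of -3 or lower and OD600 up to 0.18 on both plates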;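 also: plate controls were untreated cells for no effect and reference antibiotic for full effect; stock transfer was 100 nL into about 80 µL; one replicate is shown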
Mtb hypoxia rep growth: second read-out of Mtb hypoxia rep, no call of its own (marks repeat the call); growth inhibition, %; measured here: M. tuberculosis growth (absorbance);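 0% = vehicle and 100% = reference antibiotic; read after six days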
The depositor's hits bear a star; nt = no result given.

Results follow in this order: Sa ugtP lethal	Mtb hypoxia rep	Mtb hypoxia rep growth	BJeLR viability	Autofluor counter	PrP 5UTR inh	RN4220 kill
1: NC(=O)C1CCN(C(=O)c2ccc(CS(=O)(=O)c3c(Cl)cccc3Cl)o2)CC1
  8	nt	nt	-3	5669	-10	3.9
2: COC(=O)C1(C(F)(F)F)N=C(N(C)C)OC(N(C)C)=N1
  0	nt	nt	-7	4470	-14	5.1
3: COCCN(C(=O)COC(=O)c1cc2c(s1)CCCC2)c1c(N)n(Cc2ccccc2)c(=O)[nH]c1=O
  2	5	2	-2	5875	-5	-1.3
4: CC(=O)NC1=NN(C(C)=O)C(c2cccc([N+](=O)[O-])c2)S1 (stereo not given)
  3	11	9	4	2640	-9	2.6
5: O=C1c2ccccc2C(=O)N1CCC(c1ccccc1)c1ccco1 (stereo not given)
  23	11	2	-3	4412	-16	5.7
6: FC(F)(F)c1ccccc1/C=N/N1CCN(Cc2ccccc2)CC1
  nt	nt	nt	3	8891	-35	nt
7: CCCOC(=O)C(C)Sc1n[nH]c(=O)[nH]c1=O (stereo not given)
  2	6	3	-2	2221	-27	1.0
8: CC1CC(C)(C)CC2(C1)NC(=O)N(CC(=O)Nc1nccs1)C2=O (stereo not given)
  0	-7	-3	-1	6675	-20	2.2
9: CCOC(=O)C1CCCN(CC(O)COc2ccc(OC)cc2C(C)(C)C)C1 (stereo not given)
  -3	3	0	-3	10384	-25	3.9
10: NS(=O)(=O)c1cccc(NC(=O)COC(=O)CCC2CCCC2)c1
  12	11	7	nt	3816	-77	6.2
11: CCN(CC)C(=O)Oc1cc2c(-c3cc4cccc(OC)c4o3)cc(=O)oc2cc1C
  -11	3	7	0	4896	-13	7.0
12: COc1ccccc1C(=O)C1CCCN(C(=O)CCn2cnnn2)C1 (stereo not given)
  2	5	-5	-5	4756	-13	9.6
13: O=C(NP(=O)(N1CCOCC1)N1CCOCC1)C1=C(N2CCOCC2)/C(=C\c2ccccc2)CC1
  4	-2	-4	6	4220	-24	9.5
14: COc1ccc(CC(=O)Nc2cc(S(=O)(=O)N3CCOCC3)ccc2N2CCOCC2)cc1OC
  5	8	2	nt	8146	-14	3.7
15: O=C(COc1ccc(-n2cnnn2)cc1)Nc1ccc(F)c(F)c1
  2	9	7	nt	3591	-18	-0.1
16: CCCCNC(=O)C1=C(N)C(C(=O)Nc2ccc(C)c(S(=O)(=O)N3CCCCC3)c2)SC1=Nc1ccc(C)cc1C (stereo not given)
  3	-3	-6	1	4437	2	22
17: CCn1c(=O)cc(OCC(=O)NCCCN2CCN(c3cccc(Cl)c3)CC2)c2ccccc21
  12	5	11	4	20488*	-14	5.0
18: Cn1c(=O)[nH]c(=O)c2c1nc(SCC(=O)O)n2CCOc1ccccc1
  10	-5	8	-12	4484	-16	6.9
19: O=[N+]([O-])c1c(NCCO)cc(Sc2nc3ccccc3s2)c2nonc12
  100*	19	18	8	16128*	2	82
20: CNC(=O)Nc1cc(C)nn1C
  13	0	5	-5	2461	-13	4.2
21: Cc1ccc(/C(N)=N/OC(=O)/C=C/c2ccccc2)cc1
  8	nt	nt	1	4322	-41	-5.1
22: Cc1ccccc1CSCCC(=O)NCCc1ccccc1
  1	12	10	-4	4393	-36	3.8
23: CC1=C(C(=O)OCC2CCCO2)C(c2ccccc2)C2=C(CC(C)(C)CC2=O)N1 (stereo not given)
  7	2	0	5	2723	-18	0.0
24: CC1CCN(C(=O)c2ccc(NC(=O)CC3SC(N4CCCC4)=NC3=O)cc2)CC1 (stereo not given)
  6	-3	8	-9	nt	-15	0.2
25: Cc1ccc(O)c(N=CC2=C(O)c3ccccc3C2=O)c1
  2	6	0	-12	2914	-91	14
26: CC1CCCC(C)N1C(=O)CSc1nc(N)c(-c2ccccc2)c(=O)[nH]1 (stereo not given)
  6	13	3	1	7598	-9	1.4
27: COc1ccc(C2c3c(ncn(CCCO)c3=N)Oc3ccc4ccccc4c32)cc1 (stereo not given)
  -10	14	14	5	4266	-2	2.0
28: Cc1c(C(=O)O)sc2c1c(=O)n(Cc1ccccc1)c(=O)n2C
  4	1	7	-11	3854	-22	3.8
29: CCc1ccc(NC(=O)CSc2nc3ccccc3nc2N2CCCCC2)cc1
  -16	-13	0	-11	4870	-20	-5.2
30: O=C(Nc1ccc(C(=O)O)cc1)/C(=C\c1cccc([N+](=O)[O-])c1)NC(=O)c1ccc(Br)o1
  2	8	14	12	2674	-12	1.4

Entries of single compounds from above. Order of screens: Sa ugtP lethal, Mtb hypoxia rep, Mtb hypoxia rep growth, BJeLR viability, Autofluor counter, PrP 5UTR inh, RN4220 kill
`O=C1c2ccccc2C(=O)N1CCC(c1ccccc1)c1ccco1` (stereo not given) in the list: 23, 11, 2, -3, 4412, -16, 5.7
`CCOC(=O)C1CCCN(CC(O)COc2ccc(OC)cc2C(C)(C)C)C1` (stereo not given) in the list: -3, 3, 0, -3, 10384, -25, 3.9
`CCc1ccc(NC(=O)CSc2nc3ccccc3nc2N2CCCCC2)cc1` in the list: -16, -13, 0, -11, 4870, -20, -5.2
`Cc1ccc(O)c(N=CC2=C(O)c3ccccc3C2=O)c1` in the list: 2, 6, 0, -12, 2914, -91, 14
`FC(F)(F)c1ccccc1/C=N/N1CCN(Cc2ccccc2)CC1` in the list: nt, nt, nt, 3, 8891, -35, nt

Further results follow:
Results follow in this order: Sa ugtP lethal	Mtb hypoxia rep	Mtb hypoxia rep growth	BJeLR viability	Autofluor counter	PrP 5UTR inh	RN4220 kill
31: CCOc1ccc(N2C(=O)CC(N3CCC(O)(c4ccc(Br)cc4)CC3)C2=O)cc1 (stereo not given)
  11	nt	nt	5	4310	-22	4.7
32: Cc1cccc(NC(=O)c2cccc3c2C(=O)c2ccccc2-3)c1
  -12	8	6	8	23188*	-5	2.0
33: CC(C(=O)Nc1nnc(C2CC2)s1)N1C(=O)C2CC=CCC2C1=O (stereo not given)
  11	6	8	nt	4099	-11	3.1
34: C#CCn1c(=NC(=O)c2cccs2)sc2cccc(OCC)c21
  1	11	15	-1	5676	-22	6.1
35: O=C(CCc1c[nH]c2ccccc12)NCCc1ccccc1
  7	-3	6	-7	3633	-21	2.9
36: O=C(NC1(C(F)(F)F)N=C2SCCN2C1=O)C1CCCCC1 (stereo not given)
  -3	nt	nt	2	4802	-5	-1.7
37: CCOc1ccc(NC2c3ccccc3C(=O)N2c2ccc(Cl)cn2)cc1 (stereo not given)
  -3	7	6	4	6096	-25	-10
38: CCC(=O)Nc1cnc(NC(=O)c2cccc(F)c2)cc1C
  2	nt	nt	4	3576	-52	2.7
39: Cc1cc(-c2n[nH]c(=S)n2-c2ccc(F)cc2)nn1C
  0	15	24	-4	2725	-15	-1.6
40: CCOC(=O)c1c[nH]n2c(=O)cc(C)nc12
  4	-4	6	4	4965	-12	2.5
41: COc1ccc(CCN2C(=O)C3CC(C)=C(C)CC3C2=O)cc1OC (stereo not given)
  -13	4	10	-2	9159	-27	8.4
42: COc1ccc(S(=O)(=O)NCC(c2cccnc2)N2CCN(c3ccccc3)CC2)cc1C (stereo not given)
  19	-3	3	4	3134	4	26
43: CC(Cn1nnc([N+](=O)[O-])n1)=NNC(=O)c1ccccc1O
  4	12	-10	nt	nt	nt	8.4
44: COc1ccc(C2CC(=O)c3cnc(N4CCc5ccccc54)nc3C2)cc1OC (stereo not given)
  10	7	8	-4	nt	nt	2.4
45: COc1ccc(C(=O)COC(=O)c2ccco2)cc1
  -1	16	-16	-9	3068	-95	-9.3
46: O=C(O)C1CCCN(S(=O)(=O)c2cccs2)C1 (stereo not given)
  -1	3	13	-2	4026	-66	26
47: Cc1ccccc1C(=O)N1CCN=C1SCc1ccc([N+](=O)[O-])cc1
  13	-1	-2	-30	3402	-10	6.4
48: O=C(Nc1ccc(F)cc1)Nc1ccc2c(c1)CCC2
  -6	15	6	5	6136	-65	-1.0
49: COc1cccc(C(=O)NOCc2ccc(C)cc2)c1OC
  6	14	6	nt	3454	-23	3.0
50: CC(=O)[C@@]1(O)[C@H](C)CC2C3CC=C4CC(OP(=O)(O)O)CC[C@]4(C)C3CC[C@@]21C (stereo not given in full)
  5	0	5	-11	3624	0	-0.7
51: Brc1ccc(-c2c[n+]3c(n2-c2ccccc2)SCC3)cc1
  6	-8	-13	6	3623	nt	1.7
52: Cc1ccccc1OCC(=O)Nc1ccc(C)c(S(=O)(=O)N2CCCCCC2)c1
  nt	nt	nt	-3	4607	-4	nt
53: COc1ccc(-c2cnnn2-c2ccc(NC(=O)c3ccc(S(=O)(=O)N4CCCCC4)cc3)cc2)cc1OC
  -9	1	2	3	7544	4	8.4
54: COc1ccc(CCC(=O)N(C)CC(=O)Nc2cc(C)ccc2C)cc1
  10	5	5	5	4171	-4	3.9
55: O=C(NC(Cc1c[nH]c2ccccc12)C(=O)O)c1ccc2c(c1)OCO2 (stereo not given)
  3	9	-7	9	4034	-4	0.7
56: C(=C\c1nc(N2CCCCCC2)c2ccccc2n1)/c1ccccc1
  66	21	4	-8	11027	-32	25
57: Cc1nnc2n(c1=O)N=C(c1ccc(Cl)cc1)CS2
  16	7	2	-9	7534	-43	0.5
58: COc1ccc(-c2noc(CCC(=O)N3CCN(c4cccc(F)c4)CC3)n2)cc1
  9	-6	6	nt	3134	-9	6.5
59: O=C(CSc1nnc(COc2ccccc2)o1)N1CCCCC1
  -5	4	3	-1	3372	-30	2.8
60: O=C(Cc1ccccc1)Nc1cc2c(cc1Cl)OCCCO2
  2	8	16	-1	3936	-42	1.4

New compounds follow:
Results follow in this order: Sa ugtP lethal	Mtb hypoxia rep	Mtb hypoxia rep growth	BJeLR viability	Autofluor counter	PrP 5UTR inh	RN4220 kill
61: CNC(=O)c1sc(-c2ccccn2)nc1C
  -1	13	8	17	4372	-16	3.1
62: COC(=O)Cn1c2ccc(F)cc2c2nc(C)sc21
  -1	-2	6	4	22219*	-19	5.2
63: COc1ccc(CCNC(=O)c2ccc(-c3ccc([N+](=O)[O-])cc3Cl)o2)cc1OC
  -4	10	5	12	2694	-27	6.7
64: Cc1ccc(S(=O)(=O)Nc2cccc3c2O[C@H](CN(C)Cc2ccc(-c4ccccc4)cc2)[C@@H](C)CN([C@H](C)CO)C3=O)cc1
  -8	-11	0	nt	3689	36	10
65: O=C(CN1CCC(NC(=O)c2ccccc2)CC1)NCc1ccccc1F
  5	3	-5	2	15747	-12	2.4
66: Cc1ccccc1NC(=O)COC(=O)c1ccc2c(c1)OCCO2
  16	5	1	nt	5156	-33	4.2
67: CCCCn1c(N)c(N(C)C(=O)c2ccc(-n3cccn3)cc2)c(=O)[nH]c1=O
  0	3	3	nt	9000	-27	4.3
68: CSc1ccc(S(=O)(=O)NCC(=O)OCC(=O)NCc2ccco2)cc1[N+](=O)[O-]
  5	15	0	-12	6967	-13	2.7
69: O=C(NC1=NCCS1)c1cccs1
  -2	nt	nt	-5	4826	-14	3.3
70: COc1ccc(/C=C(/NC(=O)c2ccco2)C(=O)N2CCc3ccccc32)cc1OC
  7	3	0	-8	4957	-23	2.9
71: CC(=O)C1=C(O)CCC1=N
  -1	nt	nt	2	2452	-9	0.4
72: O=C(O)c1ccc(N2C(=O)CC(N3CCC(c4nc5ccccc5[nH]4)CC3)C2=O)cc1 (stereo not given)
  6	5	5	4	4079	-57	5.9
73: CCOC(=O)C1=CN(Cc2ccco2)S(=O)(=O)N(CC)C1c1ccc(C(F)(F)F)cc1 (stereo not given)
  6	3	3	nt	3867	-2	2.5
74: CC1=CN2C(=N)/C(=C\c3cn(CCCOc4ccccc4)c4ccccc34)C(=O)N=C2S1
  -36	-8	-3	2	2638	-30	-5.5
75: O=C(CC1C[C@H](C(=O)N2CCCCC2)[C@@]2(CCc3ccccc3)c3[nH]c4ccccc4c3CCN2C1=O)NCCCn1ccnc1 (stereo not given in full)
  5	1	13	nt	3405	-23	0.0
76: Cc1ccc(S(=O)(=O)N(CCO)c2cc3c(s2)CCCC3)cc1
  1	nt	nt	-7	4714	-25	3.5
77: O=C(NNc1ccnc2cc(Cl)ccc12)C1CCCCC1
  3	6	3	12	4537	-18	4.0
78: CS(=O)(=O)N(CC(=O)N1CCc2ccccc2C1)c1ccc(Cl)cc1F
  5	-4	-7	1	3049	-1	3.9
79: COc1ccc(N(C(=O)C(C)C)S(=O)(=O)c2cccc3cccnc23)cc1
  8	1	6	0	2006	-11	0.2
80: Cc1cc(C)cc(NC(=O)CN2CCc3ccccc3C2)c1
  4	nt	nt	5	4251	-9	-2.0
81: O=C(O)CCC(=O)N1CCN(c2ccccn2)CC1
  nt	nt	nt	-7	2622	-12	nt
82: CC(C)c1nnc(NC(=O)CCC(=O)NCc2ccc3c(c2)OCO3)s1
  8	7	11	-6	3680	-7	3.7
